Choline anaer gr: blocks anaerobic gram-negative growth on choline; actives 0.2% (n = 55,000); calls only; Gram-negative bacterium anaerobic choline minimal medium, absorbance growth; hits give low values; many inactives read as strong as hits in the columns shown; AID 1963822;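 active = growth z-score on choline under -2 at 7 or 20 h with little or no fall on glycerol, limits in tiers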;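 also: stock transfer was 300 nL into about 50 µL; the organism is E. coli; final concentration not given here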
Choline anaer gr early: also measured in Choline anaer gr; calls as there; z-score; measured here: choline growth z-score, timepoint 1;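 score of optical density at 7 h as mean of two plates; lower means less growth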
* = called active by the depositor; i = inactive; + = active, no number.

SMILES	Choline anaer gr	Choline anaer gr early
COc1ccc(NC(=O)c2ccc(CN3C(=O)CCn4nccc43)cc2)cc1OC	i	1.1
CCc1ccc(S(=O)(=O)c2cnc(N3CCC4(CC3)OCCO4)nc2N)cc1	i	-1.9
Cc1nn(-c2ccc3nnc(C)n3n2)c2c1C(c1ccc(OCCc3ccccc3)cc1)CC(=O)N2 (stereo unspecified)	i	0.93
O=C(NCC1CCCO1)c1c(O)nc2ccccn2c1=O (stereo unspecified)	i	0.08
CN(C(=O)CSc1nnc(-c2ccncc2)o1)C1CCCCC1	i	0.85
COc1ccc(NC(=O)c2c(O)c3ccccc3[nH]c2=O)cc1	i	-0.82
Cc1ccn2c(=O)c(NC(=O)c3ccccc3C)cnc2c1	i	-0.66
COc1ccccc1NC(=O)CCc1nc(CSc2nc3ccccc3s2)no1	i	0.08
COc1ccccc1N1CCN(c2ccc(SCC(=O)Nc3cccc(C)c3C)nn2)CC1	i	-0.77
CCCc1ccc(S(=O)(=O)N2CCCN(c3nc4cccnc4s3)CC2)cc1	i	-0.07
CCCN(C)S(=O)(=O)c1cc(-c2nc(C)cs2)n(CC(=O)N2CCCCC2)c1	i	0.01
O=C(Nc1cccc(C(=O)N2CCCC2)c1)c1nsc2ccccc12	i	-1.5
COc1ccc(CN2CCCC2c2c(C)noc2C)c(OC)c1 (stereo unspecified)	i	-0.13
CCS(=O)(=O)c1ccc(-c2ccc(NC(=O)c3ccccc3C)cc2)nn1	i	0.47
CCc1ccc(NC(=O)Cn2c(C(=O)OC)cc3ccsc32)cc1	i	-0.73
COC(=O)c1ccc(NC(=O)N2CCCN(C(=O)c3nonc3N)CC2)cc1	i	-1
COc1ccccc1NC(=O)c1cccc(N2CCCN(Cc3ccccc3C)C2=O)c1	i	-0.05
CN1C(=O)c2ccc(NC(=O)CCc3nc(CSc4n[nH]c(-c5ccccc5)n4)no3)cc2C1=O	i	-0.07
CC(CC(=O)N1CCc2ccccc2C1)S(=O)(=O)c1ccc2c(c1)NC(=O)CCS2 (stereo unspecified)	i	-0.3
CC(C)NC(=O)c1ccc(-c2nc3cc(NS(=O)(=O)c4ccc(F)c(F)c4)ccc3n2C)cc1	i	0.17
Cc1ccccc1Cn1nc2c(S(=O)(=O)N3CCOCC3)cccn2c1=O	i	0.29
Cc1cc(-c2[nH]c3c(c2-c2cc(C)sc2C)c(=O)[nH]c(=O)n3C)c(C)s1	i	-0.48
COc1ccc(S(=O)(=O)Nc2noc3ccccc23)cc1OC	i	-0.84
COc1cccc(Oc2ccnc(-c3cccc(C(=O)NC4CCCc5ccccc54)c3)n2)c1 (stereo unspecified)	i	-0.37
CC1CN(c2ccc(Br)cc2)c2nc3c(c(=O)n(CCCO)c(=O)n3C)n2C1 (stereo unspecified)	i	0.7
CCOC(=O)C1CCN(Cc2nnc(-c3ccccc3C)o2)CC1	i	0.2
O=C(CCCn1c(=O)c2cccn2c2ccc(Br)cc21)N1CCCC1	i	0.45
COc1ccc(Nc2nc(C)c3[nH]c(=O)c(=O)n(-c4ccc(OC)c(Cl)c4)c3n2)cc1Cl	i	0.54
Cc1ccccc1NC(=O)c1c(O)c2ccccc2[nH]c1=O	i	0.31
Cc1cc(=O)n2[nH]c(Cc3ccccc3)nc2n1	i	-0.47
CC(=O)N1CCSc2ccc(S(=O)(=O)Nc3cc(Cl)ccc3C)cc21	i	0.88
O=C(NC1CCCC1)c1cc2ccccc2c(=O)s1	i	0.15
Cc1[nH]c(C(=O)N2CCC(CC(=O)NCc3ccc4c(c3)OCO4)CC2)c(C)c1C(=O)OC(C)C	i	-0.14
CCn1c(=O)sc2cc(N(S(C)(=O)=O)S(C)(=O)=O)ccc21	i	-0.12
O=C(Nc1cccc(Cl)c1)C1CCCN(c2nc3cccnc3s2)C1 (stereo unspecified)	i	-0.19
Cc1cccc(Nc2ncnc3c2cnn3C)c1C	i	-1.4
CC(C)c1cc(C2CCCN2Cc2cn[nH]c2-c2cccc(Br)c2)on1 (stereo unspecified)	i	0.48
CCCCN(c1nc2nc(C)c(Cl)c(C)n2n1)S(=O)(=O)c1ccccc1	i	-0.41
O=C(c1cc(NS(=O)(=O)c2ccc(Br)cc2)cnc1N1CCNCC1)N1CCCC1	i	0.23
COc1ccc(Nc2nc(-c3nnn(-c4cc(F)ccc4F)c3C)ns2)cc1	i	1.3
CCCCC(=O)Nc1ccc(Nc2cc(N3CCCC3)nc(C)n2)cc1	i	0.11
O=C(CCCCC(=O)Nc1c(I)cc(I)c(C(=O)O)c1I)Nc1c(I)cc(I)c(C(=O)O)c1I	i	0.48
O=C(C1CC1)N1CCc2sc(S(=O)(=O)NCc3cccs3)cc2C1	i	0.47
Cc1cc(N2CCCC2)n2nc(Cc3ccccc3)nc2n1	i	-0.28
O=C(NCc1ccc2c(c1)OCO2)C1CC(=O)N(c2ccc3c(c2)CCN3C(=O)C2CC2)C1 (stereo unspecified)	i	-0.27
CCc1ccc2ncc3c(-c4ccc(F)cc4)n[nH]c3c2c1	i	0.15
Cc1nc2nc(C3CCCCC3)nn2c(C)c1CC(=O)N1CCc2ccccc2C1	i	-0.66
Cc1noc(C)c1S(=O)(=O)N1CCC(C(C)C(=O)N2CCN(c3ccc(F)cc3)CC2)CC1 (stereo unspecified)	i	1.4
Cc1ccc(N2C(=O)c3cc4ccsc4n3CC2(C)C(=O)NC2CCCC2)cc1C (stereo unspecified)	i	1.2
CC(C)CN1CC(c2nc3ccccc3[nH]2)CC1=O (stereo unspecified)	i	-1.9

Carrying on.
SMILES	Choline anaer gr	Choline anaer gr early
COc1ccc(/C=C/c2nc(-c3ccc4c(c3)[nH]c(=O)n4C(C)C)no2)cc1	i	0.72
CCC(=O)N1CCc2cc(Br)c(S(=O)(=O)CCC(=O)N3CCC(C)CC3)cc21	i	-1.4
Cc1nc2nc(-c3ccc(C(C)(C)C)cc3)nn2c(C)c1CC(=O)NC(C)C	i	0.55
O=c1n(Cc2cccc(F)c2)nc2c(S(=O)(=O)N3CCCC3)cccn12	i	0.03
Cc1nn(Cc2ccccc2)c(C)c1S(=O)(=O)N1CCN(C(=O)c2cc3ccccc3[nH]2)CC1	i	0.81
O=C1COc2ccc(S(=O)(=O)N3CCN(C(=O)C4CC(=O)N(c5cccc(Cl)c5)C4)CC3)cc2N1 (stereo unspecified)	i	-0.31
O=C(C1CCN(c2nc3ccccc3n3cccc23)CC1)N1CCC(Cc2ccccc2)CC1	i	1.3
CC(C)Cn1cc(NC(=O)NCCCc2ccccc2)c2ccccc2c1=O	i	-0.52
Cn1c(=O)[nH]c2ncn(C)c2c1=O	i	0.12
CN(c1ccc2c(c1)OCCO2)S(=O)(=O)c1ccsc1-c1nc(-c2ccc3c(c2)OCO3)no1	i	0.34
CN(C)S(=O)(=O)c1ccc2c(c1)N(CC(=O)NC1CC1)C(=O)C1CCCCN21 (stereo unspecified)	i	0.8
Cc1c(N(C(=O)Cc2c[nH]c3ccccc23)C2(C(=O)NC3CCCC3)CCCCC2)c(=O)n(-c2ccccc2)n1C	i	-0.94
O=C1NC(c2ccc(F)cc2)(C(F)(F)F)C(=O)N1c1ccccn1 (stereo unspecified)	i	1.3
Cc1cccc(-c2noc(-c3cccnc3N3CCC(C(=O)NCc4ccc5c(c4)OCO5)CC3)n2)c1	i	0.82
CN(C)CCNC(=O)CN1C(=O)C2CCCCN2c2ccc(C(=O)N3CCCCC3)cc21 (stereo unspecified)	i	0.59
CCC(=O)N1CCc2sc(C(=O)NCCN3CCCCC3)cc2C1	i	1.1
CCN(CC)CCNC(=O)Cn1c(C)nc2onc(C)c2c1=O	i	-0.89
Cc1nc2ccccc2c(=O)n1-c1ccc(NC(=O)c2cc(F)ccc2F)cc1	i	-0.14
CCOC(=O)N1CCC2(CC1)N=C(c1cc(Cl)ccc1O)CC(c1ccc(F)cc1)N2 (stereo unspecified)	i	-0.15
Cc1nnc(NC(=O)CSc2nnc3ccc(-c4ccccn4)nn23)s1	i	0.23

Part of the list above, with bars between the fields.
Molecule | Choline anaer gr | Choline anaer gr early
COc1ccccc1NC(=O)c1cccc(N2CCCN(Cc3ccccc3C)C2=O)c1 | i | -0.05
CN1C(=O)c2ccc(NC(=O)CCc3nc(CSc4n[nH]c(-c5ccccc5)n4)no3)cc2C1=O | i | -0.07
CC(CC(=O)N1CCc2ccccc2C1)S(=O)(=O)c1ccc2c(c1)NC(=O)CCS2 (stereo unspecified) | i | -0.3
CC(C)NC(=O)c1ccc(-c2nc3cc(NS(=O)(=O)c4ccc(F)c(F)c4)ccc3n2C)cc1 | i | 0.17
Cc1ccccc1Cn1nc2c(S(=O)(=O)N3CCOCC3)cccn2c1=O | i | 0.29
Cc1cc(-c2[nH]c3c(c2-c2cc(C)sc2C)c(=O)[nH]c(=O)n3C)c(C)s1 | i | -0.48

The listing continues:
SMILES	Choline anaer gr	Choline anaer gr early
CCC(=O)N1CCCC1C(=O)N1CCCN(C)CC1 (stereo unspecified)	+	-2.1*
O=C(c1ccc(F)cc1)N1CCN(c2nc3ccccc3n3cccc23)CC1	i	1.2
Cc1cc(C2CCCN2C(=O)c2ccn(C)n2)on1 (stereo unspecified)	i	0.54
Cc1cc(-n2nnc(C(=O)OCc3ccccc3C)c2C)ccc1Br	i	1.5
COc1ccc(NC(=O)C2CCN(S(=O)(=O)c3cc(C(=O)N4CCCC4)cs3)CC2)cc1	i	-1.2
CC1CN(C(=O)CCC(=O)NCCc2ccc(S(N)(=O)=O)cc2)c2ccccc2O1 (stereo unspecified)	i	0.65
O=C(Cn1cnc2nc3c(cc2c1=O)CCCC3)Nc1ccc(F)c(Cl)c1	i	0.39
CC1CCN(S(=O)(=O)c2cc3c(cc2Cl)Oc2ccccc2NC3=O)CC1	i	0.52
Cc1cc(C)cc(NC(=O)Cn2ncc3c2-c2ccccc2OC3)c1	i	2
COC(=O)c1c(-c2ccc(Cl)cc2)noc1Nc1ccc2c(c1)OCCO2	i	1.1
COC(=O)c1c(-c2cccc(Cl)c2)noc1N1CCCC1	i	0.46
CCn1c2c(c3cc(C4CCCCC4)ccc31)CCCC2=O	i	-1.8
COc1ccc(-c2noc(CSc3nc4cc(-c5ccccc5)sc4c(=O)n3C)n2)cc1OC	i	-0.73
COCCCn1c(SCc2nc(-c3ccc4c(c3)OCO4)no2)nc2cc3c(cc2c1=O)OCO3	i	0.25
CC(C)CNC(=O)N(C)CCc1noc(C(=O)NCc2ccc3c(c2)OCO3)n1	i	0.12
CCc1cc2c(cc3n2CC(C)(C(=O)NC2CCCCC2)N(c2cc(OC)ccc2OC)C3=O)s1 (stereo unspecified)	i	0.46
O=C(CCc1nc(-c2ccc(S(=O)(=O)N3CCCC3)cc2)no1)NC1CCCC1	i	0.87
CCc1ccc2c(c1)-c1ccccc1S(=O)(=O)N2CC(=O)NC(C)C	i	0.81
Cc1nc2nc(COc3ccccc3)nn2c(C)c1Cl	i	-0.69
CCOC(=O)c1cn(CC(=O)NCc2ccc(OC)cc2)c2nc(C)ccc2c1=O	i	0.52

Given as labelled records: 4 of the compounds above.
O=C(c1ccc(F)cc1)N1CCN(c2nc3ccccc3n3cccc23)CC1
  Choline anaer gr: i	Choline anaer gr early: 1.2

Cc1cc(C2CCCN2C(=O)c2ccn(C)n2)on1 (stereo unspecified)
  Choline anaer gr: i	Choline anaer gr early: 0.54

Cc1cc(-n2nnc(C(=O)OCc3ccccc3C)c2C)ccc1Br
  Choline anaer gr: i	Choline anaer gr early: 1.5

COc1ccc(NC(=O)C2CCN(S(=O)(=O)c3cc(C(=O)N4CCCC4)cs3)CC2)cc1
  Choline anaer gr: i	Choline anaer gr early: -1.2

Following part.
SMILES	Choline anaer gr	Choline anaer gr early
O=C(c1ccc(CN2CCc3ccccc3C2)cc1)N1CCN(c2ccccc2)CC1	i	0.47
Cc1ccccc1OCC(=O)Nc1ccc(SCc2nnc(-c3ccccc3)o2)cc1	i	2
Cc1cc(C)n2nc(CN(C(=O)CC(C)C)c3ccc(Cl)cc3)nc2n1	i	-1.2
CC(C)C(=O)N1CC(C)(C)c2cc(S(=O)(=O)Nc3ccc4c(c3)OCCO4)ccc21	i	1.2
Cn1c(SCc2ccc(N3CCCC3=O)cc2)nc2cc(-c3ccccc3)sc2c1=O	i	-0.15
Cn1nc(COCc2ccccc2)c2c1CCN(S(=O)(=O)c1cccc3nsnc13)C2	i	0.59
CC(C)(C)NC(=O)CN1CCN(c2cc(C(=O)O)c3cc(NC(=O)C4CCCC4)ccc3n2)CC1	i	-1.5
Cc1cccc(C(=O)Nc2cc(-c3ccccc3)nn2-c2ccccc2)c1	i	-0.02
Cc1ccccc1COC(=O)c1nnn(-c2ccc(Br)cc2)c1C	i	0.16
COC(=O)c1ccc(CSc2nnc(-c3cc(C)ccc3NC(C)=O)c(=O)[nH]2)cc1	i	0.66
COc1ccc(CNC(=O)c2ccc(CN3CC(=O)N4CCCCC4C3=O)cc2)cc1 (stereo unspecified)	i	1.3
Cc1noc(Cn2c(=O)c3ccccc3n(CC(=O)Nc3cccc(F)c3)c2=O)n1	i	0.39
Cc1ccc(C2CCCN2S(=O)(=O)c2cc(C)c(C)cc2C)cc1 (stereo unspecified)	i	0.73
CCc1nc2nc3c(c(NCc4ccc(F)cc4)n2n1)CCC3	i	0.42
CCOC1CCN(C(=O)NC(C)C)CC1	i	1
CCOc1ccc(-c2nc(CSc3nc4ccccc4n4c(C)nnc34)c(C)o2)cc1	i	0.65
Cc1cc(NC(=O)c2cccn2-c2cccnc2)ccc1Br	i	-0.82
O=C(CSc1ccccc1)N1CCCN(c2ccc(=O)n(-c3ccccc3)n2)CC1	i	-1.9
CC(C)CNC(=O)c1ccc2c(=O)n(C(C)C)c3nn(CC(=O)NC(C)C)c(=O)n3c2c1	i	0.62
CC(=O)N1CC(C)Oc2ccc(S(=O)(=O)N3CCCN(c4nc5cccnc5s4)CC3)cc21 (stereo unspecified)	i	-0.47

Assay outcomes deposited in PubChem by ICCB-Longwood Screening Facility, Harvard Medical School.

Only part of the results is shown, so the mix of outcomes need not match the whole.
